ID4 binder = binders of human ID4 protein. P47928. 31,000 compounds, 1.2% hits. small molecule microarray, Flag-ID4 binding, fluorescence F/B. AID 624137. calls only;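 active = spot signal over background at p below 0.07 in all four prints; compounds were printed on slides so no solution concentration is given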;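 also: a binder raises fluorescence above local background on the spot; about 2 pmol printed per array spot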
Target sequence (P47928 whole entry, looked up): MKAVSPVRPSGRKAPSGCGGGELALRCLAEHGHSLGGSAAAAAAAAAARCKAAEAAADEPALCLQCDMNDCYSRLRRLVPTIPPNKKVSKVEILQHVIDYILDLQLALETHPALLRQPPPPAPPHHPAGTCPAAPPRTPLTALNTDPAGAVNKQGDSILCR
Myc binder = c-Myc (human) binding | 17,000 compounds, 1.5% hits | small molecule microarray, His-c-Myc binding, anti-His fluorescence | P01106 | calls only;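 active = spot fluorescence over background with P-value below 7% in all four replicate spots, showing protein binding; compounds were printed on slides so no solution concentration is given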;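 also: score is binary with 100 for all four spots passing and 0 otherwise; about 2 pmol printed per array spot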
STAT3 binder = binders of human STAT3 | Small molecule microarray, His-STAT3 binding, anti-His fluorescence | calls only | 17,000 compounds, 0.2% hits;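 active = compounds whose four printed spots each show fluorescence over background unusually high for their array block, chance value under 7%; compounds were printed on slides so no solution concentration is given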;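 also: about 2 pmol printed per array spot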
Target sequence (P40763 whole entry, looked up): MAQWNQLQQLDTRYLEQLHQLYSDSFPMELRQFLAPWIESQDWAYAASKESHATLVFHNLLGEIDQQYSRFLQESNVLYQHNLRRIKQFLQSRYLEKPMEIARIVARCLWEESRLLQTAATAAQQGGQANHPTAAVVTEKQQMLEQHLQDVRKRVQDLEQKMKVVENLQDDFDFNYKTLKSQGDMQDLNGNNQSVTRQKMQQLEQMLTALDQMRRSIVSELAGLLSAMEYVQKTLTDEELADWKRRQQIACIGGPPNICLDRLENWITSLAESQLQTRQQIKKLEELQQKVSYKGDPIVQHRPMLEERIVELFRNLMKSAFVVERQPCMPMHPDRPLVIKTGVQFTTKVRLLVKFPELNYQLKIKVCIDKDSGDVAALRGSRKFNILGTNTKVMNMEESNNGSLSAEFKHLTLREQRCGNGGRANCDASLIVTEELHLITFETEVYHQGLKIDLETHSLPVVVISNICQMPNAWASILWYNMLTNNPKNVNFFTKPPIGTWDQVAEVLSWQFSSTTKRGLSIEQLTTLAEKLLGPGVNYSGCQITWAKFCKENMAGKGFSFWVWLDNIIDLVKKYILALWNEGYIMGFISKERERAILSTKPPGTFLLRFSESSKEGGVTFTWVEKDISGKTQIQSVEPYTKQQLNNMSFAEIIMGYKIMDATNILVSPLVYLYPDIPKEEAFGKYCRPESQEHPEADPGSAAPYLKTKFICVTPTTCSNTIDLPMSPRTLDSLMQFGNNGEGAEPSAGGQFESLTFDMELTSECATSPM
mut p53 SMM = binds human mutant p53 on microarray | small molecule microarray binding, anti-GST fluorescence | calls only | 17,000 compounds, 0.4% hits;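 active = compounds whose four printed spots each glow above background more than chance allows, each with a p-value under 7%; compounds were printed on slides so no solution concentration is given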;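 also: about 2 pmol printed per array spot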
Calls only.

Screening C[C@@H]1CN([C@@H](C)CO)C(=O)Cc2cc(NS(C)(=O)=O)ccc2O[C@@H]1CN(C)C returned ID4 binder inactive, Myc binder inactive, STAT3 binder inactive and mut p53 SMM inactive.
Screening Cc1ccccc1OCC(=O)Nc1ccccc1NC(=O)c1ccco1 returned ID4 binder inactive, Myc binder inactive, STAT3 binder inactive and mut p53 SMM inactive.
`C[C@@H]1CCCCO[C@H](CN(C)C(=O)Nc2cccc3ccccc23)[C@H](C)CN([C@@H](C)CO)C(=O)c2cc(NC(=O)c3ccncc3)ccc2O1` gave ID4 binder inactive, Myc binder inactive, STAT3 binder inactive and mut p53 SMM inactive.
`NC(=O)C1=C[C@H](c2ccc(Br)cc2)C[C@H](OCc2ccc(CO)cc2)O1` gave Myc binder inactive, STAT3 binder inactive and mut p53 SMM inactive.
Screening C[C@H]1CN([C@@H](C)CO)C(=O)c2cccc(NS(C)(=O)=O)c2O[C@H]1CN(C)Cc1ccc(Oc2ccccc2)cc1 returned ID4 binder inactive, Myc binder inactive, STAT3 binder inactive and mut p53 SMM inactive.
For C[C@H]1CN([C@@H](C)CO)C(=O)c2cccc(N(C)C)c2O[C@@H]1CN(C)Cc1ccc(C(=O)O)cc1 the results were ID4 binder inactive, Myc binder inactive, STAT3 binder inactive and mut p53 SMM inactive.
Screening Cc1c(NC(=O)C(C)N2C(=O)c3ccccc3C2=O)c(=O)n(-c2ccccc2)n1C (stereo not drawn) returned ID4 binder inactive, Myc binder inactive, STAT3 binder inactive and mut p53 SMM inactive.
C[C@H](CO)N1C[C@H](C)[C@H](CN(C)S(=O)(=O)c2cccs2)Oc2c(NS(=O)(=O)c3ccc(Cl)cc3)cccc2C1=O was read as ID4 binder inactive, Myc binder inactive, STAT3 binder inactive and mut p53 SMM inactive.
For CCC(Sc1nc(C)cc(=O)[nH]1)C(=O)Nc1ccccc1C#N (stereo not drawn) the results were ID4 binder inactive, Myc binder inactive, STAT3 binder inactive and mut p53 SMM inactive.
C[C@@H]1CN([C@@H](C)CO)C(=O)c2cc(NC(=O)Nc3ccc(F)cc3)ccc2O[C@H]1CN(C)C was read as ID4 binder inactive, Myc binder inactive, STAT3 binder inactive and mut p53 SMM inactive.
For C[C@H]1CN([C@@H](C)CO)C(=O)Cc2cc(NC(=O)Cc3ccccc3)ccc2O[C@@H]1CN(C)S(=O)(=O)c1cn(C)cn1 the results were ID4 binder inactive, Myc binder inactive, STAT3 binder inactive and mut p53 SMM inactive.
For C#CCNC(=O)C1=C[C@H](c2ccc(Br)cc2)C[C@H](OCCCCO)O1 the results were ID4 binder inactive, Myc binder inactive, STAT3 binder inactive and mut p53 SMM inactive.
`C[C@H](CO)N1C[C@H](C)[C@@H](CN(C)S(=O)(=O)c2ccc(Cl)cc2)Oc2ccc(NS(=O)(=O)c3cccs3)cc2CC1=O` gave ID4 binder inactive, Myc binder inactive, STAT3 binder inactive and mut p53 SMM inactive.
For C[C@@H]1CCCCO[C@@H](CN(C)S(=O)(=O)c2cn(C)cn2)[C@@H](C)CN([C@@H](C)CO)C(=O)c2cc(NC(=O)CCCN(C)C)ccc2O1 the results were ID4 binder inactive, Myc binder inactive, STAT3 binder inactive and mut p53 SMM inactive.
`Cc1cccc(C)c1OCC(=O)Nc1cccc(C(=O)O)c1C` gave ID4 binder inactive, Myc binder inactive, STAT3 binder inactive and mut p53 SMM inactive.
Screening C[C@@H]1CN([C@@H](C)CO)C(=O)Cc2cc(N(C)C)ccc2O[C@@H]1CN(C)Cc1ccc(Cl)c(Cl)c1 returned ID4 binder inactive, Myc binder inactive, STAT3 binder inactive and mut p53 SMM inactive.
For Cn1nc(CC(=O)Nc2ccc(Oc3ccccc3)cc2)c2ccccc2c1=O the results were ID4 binder inactive, Myc binder inactive, STAT3 binder inactive and mut p53 SMM inactive.
For C[C@@H]1CN([C@H](C)CO)C(=O)c2cccc(NS(=O)(=O)c3ccccc3)c2O[C@H]1CN(C)C the results were ID4 binder inactive, Myc binder inactive, STAT3 binder inactive and mut p53 SMM inactive.
Screening COc1ccc(S(=O)(=O)Nc2cccc3c2O[C@@H](CN(C)Cc2ccc(C(=O)O)cc2)[C@@H](C)CN([C@@H](C)CO)C3=O)cc1 returned ID4 binder inactive, Myc binder inactive, STAT3 binder inactive and mut p53 SMM inactive.
`C[C@H]1CCCCO[C@H](CN(C)C(=O)Nc2ccc3c(c2)OCO3)[C@@H](C)CN([C@@H](C)CO)C(=O)c2cc(NS(C)(=O)=O)ccc2O1` gave ID4 binder inactive, Myc binder inactive, STAT3 binder inactive and mut p53 SMM inactive.
C[C@@H]1CN([C@@H](C)CO)C(=O)c2cc(NS(=O)(=O)c3ccccc3)ccc2O[C@H]1CN(C)C(=O)NC1CCCCC1 was read as ID4 binder inactive, Myc binder inactive, STAT3 binder inactive and mut p53 SMM inactive.
COc1ccccc1NC(=O)C1=C(C)Nc2ncnn2C1c1ccccn1 (stereo not drawn) was read as ID4 binder inactive, Myc binder inactive, STAT3 binder inactive and mut p53 SMM inactive.
Screening COc1cccc(S(=O)(=O)NCC(=O)N2CCCCCC2)c1 returned ID4 binder inactive, Myc binder inactive, STAT3 binder inactive and mut p53 SMM inactive.
O=C(C1=C[C@@H](c2ccc3c(c2)Cc2ccccc2-3)C[C@@H](OCCCCO)O1)N1CCN(Cc2ccc3c(c2)OCO3)CC1 was read as ID4 binder inactive, Myc binder inactive, STAT3 binder inactive and mut p53 SMM inactive.

Quoted at random: 2 compounds from above
Screening COc1ccc(S(=O)(=O)Nc2cccc3c2O[C@@H](CN(C)Cc2ccc(C(=O)O)cc2)[C@@H](C)CN([C@@H](C)CO)C3=O)cc1 returned ID4 binder inactive, Myc binder inactive, STAT3 binder inactive and mut p53 SMM inactive.
C[C@@H]1CN([C@@H](C)CO)C(=O)c2cc(NS(=O)(=O)c3ccccc3)ccc2O[C@H]1CN(C)C(=O)NC1CCCCC1 was read as ID4 binder inactive, Myc binder inactive, STAT3 binder inactive and mut p53 SMM inactive.

(next part)
For C[C@@H]1CN([C@@H](C)CO)C(=O)c2cccc(NC(=O)c3ccncc3)c2O[C@@H]1CN(C)Cc1ccc2c(c1)OCO2 the results were ID4 binder inactive, Myc binder inactive, STAT3 binder inactive and mut p53 SMM inactive.
CC(C)NC(=O)N(C)C[C@H]1OCCCC[C@@H](C)Oc2ccc(NC(=O)Nc3ccccc3)cc2C(=O)N([C@@H](C)CO)C[C@H]1C was read as ID4 binder inactive, Myc binder inactive, STAT3 binder inactive and mut p53 SMM inactive.
`O=C(NCc1ccccn1)c1ccccc1O` gave ID4 binder inactive, Myc binder inactive, STAT3 binder inactive and mut p53 SMM inactive.
For COc1ccc(CN(C)C[C@H]2Oc3ccc(NC(=O)c4ccncc4)cc3CC(=O)N([C@H](C)CO)C[C@@H]2C)cc1 the results were ID4 binder inactive, Myc binder inactive, STAT3 binder inactive and mut p53 SMM inactive.
`Cc1noc(C)c1NC(=O)N(C)C[C@@H]1OCCCC[C@H](C)Oc2ccc(NS(C)(=O)=O)cc2C(=O)N([C@@H](C)CO)C[C@H]1C` gave ID4 binder inactive, Myc binder inactive, STAT3 binder inactive and mut p53 SMM inactive.
`C[C@@H]1CN([C@H](C)CO)C(=O)Cc2cc(NS(=O)(=O)c3cn(C)cn3)ccc2O[C@H]1CN(C)S(=O)(=O)c1ccc(Cl)cc1` gave ID4 binder inactive, Myc binder inactive, STAT3 binder inactive and mut p53 SMM inactive.
COc1ccc([Si](C)(C)[C@H]2[C@H](CCO)O[C@@]3(C(=O)N(Cc4cccc(NC(C)=O)c4)c4ccccc43)[C@@H]2C)cc1 was read as ID4 binder inactive, Myc binder inactive, STAT3 binder inactive and mut p53 SMM inactive.
For Cc1noc(C)c1S(=O)(=O)Nc1ccc2c(c1)C(=O)N([C@@H](C)CO)C[C@@H](C)[C@H](CN(C)C)OCCCC[C@@H](C)O2 the results were ID4 binder inactive, Myc binder inactive, STAT3 binder inactive and mut p53 SMM inactive.
For C[C@@H]1CCCCO[C@@H](CN(C)C(=O)c2ccccc2)[C@@H](C)CN([C@H](C)CO)C(=O)c2cc(NC(=O)Nc3ccc(F)cc3)ccc2O1 the results were ID4 binder inactive, Myc binder inactive, STAT3 binder inactive and mut p53 SMM inactive.
Screening C[C@@H]1CN([C@@H](C)CO)C(=O)c2cc(NC(=O)Nc3ccc4c(c3)OCO4)ccc2O[C@@H]1CN(C)Cc1ccc(C(F)(F)F)cc1 returned ID4 binder inactive, Myc binder inactive, STAT3 binder inactive and mut p53 SMM inactive.
Screening COc1cc(NC(=O)C2CC=CCC2C(=O)O)ccc1NC(=O)c1ccccc1 (stereo not drawn) returned ID4 binder inactive, Myc binder inactive, STAT3 binder inactive and mut p53 SMM inactive.
CCOC(=O)c1nnn(-c2nonc2-n2cccc2)c1CN1CCOCC1 was read as ID4 binder inactive, Myc binder inactive, STAT3 binder inactive and mut p53 SMM inactive.
Screening C[C@@H]1CCCCO[C@H](CN(C)C(=O)Cc2ccccc2)[C@@H](C)CN([C@@H](C)CO)C(=O)c2cc(NS(C)(=O)=O)ccc2O1 returned ID4 binder inactive, Myc binder inactive, STAT3 binder inactive and mut p53 SMM inactive.
C[C@H](CO)N1C[C@H](C)[C@H](CN(C)C(=O)Nc2ccc3c(c2)OCO3)Oc2ncc(C#Cc3ccccc3)cc2C1=O was read as ID4 binder inactive, Myc binder inactive, STAT3 binder inactive and mut p53 SMM inactive.
`CC1=CC(=O)[C@H]2C(C)(C)CCC[C@]2(C)[C@@]1(O)CO` gave Myc binder inactive, STAT3 binder inactive and mut p53 SMM inactive.
`C[C@@H]1CCCCO[C@@H](CN(C)C(=O)CCC(F)(F)F)[C@@H](C)CN([C@@H](C)CO)C(=O)c2cc(NS(=O)(=O)c3cccs3)ccc2O1` gave ID4 binder inactive, Myc binder inactive, STAT3 binder inactive and mut p53 SMM inactive.
`C[C@@H]1CN([C@H](C)CO)C(=O)c2cccc(NC(=O)Nc3ccc4c(c3)OCO4)c2O[C@@H]1CN(C)C(=O)NC1CCCCC1` gave ID4 binder inactive, Myc binder inactive, STAT3 binder inactive and mut p53 SMM inactive.
Screening C[C@@H]1CN([C@@H](C)CO)C(=O)Cc2cc(NC(=O)Cc3ccccc3)ccc2O[C@@H]1CN(C)S(=O)(=O)c1cccs1 returned ID4 binder inactive, Myc binder inactive, STAT3 binder inactive and mut p53 SMM inactive.
CC(C)NC(=O)N(C)C[C@@H]1OCCCC[C@@H](C)Oc2ccc(NC(=O)Cc3ccccc3)cc2C(=O)N([C@@H](C)CO)C[C@H]1C was read as ID4 binder inactive, Myc binder inactive, STAT3 binder inactive and mut p53 SMM inactive.
Screening Cc1noc(C)c1NC(=O)N(C)C[C@@H]1Oc2ccc(NC(=O)Cc3cn(C)c4ccccc34)cc2CC(=O)N([C@H](C)CO)C[C@H]1C returned ID4 binder inactive, Myc binder inactive, STAT3 binder inactive and mut p53 SMM inactive.
`Cc1cc(C)c2c(CC(=O)N(CC#N)CC#N)coc2c1` gave ID4 binder inactive, Myc binder inactive, STAT3 binder inactive and mut p53 SMM inactive.
Screening O=C(CCc1nc(-c2ccccc2Cl)no1)Nc1ccccc1[N+](=O)[O-] returned ID4 binder inactive, Myc binder inactive, STAT3 binder inactive and mut p53 SMM inactive.
C[C@H](CO)N1C[C@H](C)[C@@H](CN(C)Cc2ccc(C(=O)O)cc2)Oc2c(NC(=O)Nc3ccc(F)cc3)cccc2C1=O was read as ID4 binder inactive, Myc binder inactive, STAT3 binder inactive and mut p53 SMM inactive.
Screening C[C@H]1CN([C@@H](C)CO)C(=O)CCCn2cc(nn2)CO[C@@H]1CN(C)Cc1ccc2cccnc2c1 returned ID4 binder inactive, Myc binder inactive, STAT3 binder inactive and mut p53 SMM inactive.
For COc1ccc(S(=O)(=O)NCCc2c[nH]c3ccccc23)c2ccccc12 the results were ID4 binder inactive, Myc binder inactive, STAT3 binder inactive and mut p53 SMM inactive.
For COc1ccc(C2Oc3c(OC)cc(CCCO)cc3C2CO)cc1OC1OC(CO)C(O)C(O)C1O (stereo not drawn) the results were ID4 binder inactive, Myc binder inactive, STAT3 binder inactive and mut p53 SMM inactive.
`C[C@H](CO)N1C[C@H](C)[C@@H](CN(C)C(=O)NC2CCCCC2)Oc2c(NC(=O)Nc3cccc4ccccc34)cccc2C1=O` gave ID4 binder inactive, Myc binder inactive, STAT3 binder inactive and mut p53 SMM inactive.

Among those listed so far, these have a Cl atom:
C[C@H](CO)N1C[C@H](C)[C@H](CN(C)S(=O)(=O)c2cccs2)Oc2c(NS(=O)(=O)c3ccc(Cl)cc3)cccc2C1=O was read as ID4 binder inactive, Myc binder inactive, STAT3 binder inactive and mut p53 SMM inactive.
`C[C@H](CO)N1C[C@H](C)[C@@H](CN(C)S(=O)(=O)c2ccc(Cl)cc2)Oc2ccc(NS(=O)(=O)c3cccs3)cc2CC1=O` gave ID4 binder inactive, Myc binder inactive, STAT3 binder inactive and mut p53 SMM inactive.
Screening C[C@@H]1CN([C@@H](C)CO)C(=O)Cc2cc(N(C)C)ccc2O[C@@H]1CN(C)Cc1ccc(Cl)c(Cl)c1 returned ID4 binder inactive, Myc binder inactive, STAT3 binder inactive and mut p53 SMM inactive.
`C[C@@H]1CN([C@H](C)CO)C(=O)Cc2cc(NS(=O)(=O)c3cn(C)cn3)ccc2O[C@H]1CN(C)S(=O)(=O)c1ccc(Cl)cc1` gave ID4 binder inactive, Myc binder inactive, STAT3 binder inactive and mut p53 SMM inactive.
Screening O=C(CCc1nc(-c2ccccc2Cl)no1)Nc1ccccc1[N+](=O)[O-] returned ID4 binder inactive, Myc binder inactive, STAT3 binder inactive and mut p53 SMM inactive.

These rows are one share of the data, so the mix of outcomes need not match the whole.
